Screening data (PubChem BioAssay)
ugtP null kill = kills S. aureus RN4220 lacking UgtP | S. aureus RN4220 ugtP deletion, OD600 growth, 16 h; some inactives read as strong as hits | growth inhibition, % (test concentration not listed) | 330,000 compounds, 0.54% hits;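 active = z-score under -3 and OD600 up to 0.15 on both plates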;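 note: plate controls were untreated wells for no effect and antibiotic for full effect; wells of about 80 µL received 100 nL stock; the first replicate is given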
PrP 5UTR inh = suppresses PrP 5' UTR mRNA reporter expression; inhibition, % (test concentration not listed); 340,000 compounds, 0.35% hits; cell-based PrP 5' UTR mRNA reporter, plate reader; AID 488862;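 active = every replicate at 50% or more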;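 note: 0 = median of the neutral control wells; tested in H4 reporter cells; numbers are from one replicate; inactives centre near -14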
Autofluor counter = compound fluorescence in toxin protease inhibitor counterscreen. compound autofluorescence counterscreen, microsphere flow cytometry; active compounds read high. fluorescence intensity (concentration not given with the values). 360,000 compounds, 3.1% hits;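 active = at least 3 SD above the mean of all compounds, about 16000 in these data; inconclusive = too few beads counted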;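 note: 100 nL of 1 mM stock went into each well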
BJeLR lethal = kills HRASV12-expressing BJeLR cells. 300,000 compounds, 0.17% hits. inhibition, % (concentration not given with the values). BJeLR (HRASV12) viability, CellTiter-Glo ATP luminescence, 48 h; reference of the scale not given here;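 active = replicate mean above 50%; inconclusive = above 50% but judged a plate artefact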;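 note: 50 nL library stock added to about 25 µL; numbers are from one replicate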
Mtb hypoxia rep = Mtb hypoxia fluorescent reporter inhibition. M. tuberculosis hypoxia-regulated fluorescent reporter, fluorescence. fluorescence inhibition, % (test concentration not listed). 300,000 compounds, 0.1% hits. AID 1159583;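 active = 35 to 45% if threefold the growth effect, above 45% if 1.5-fold the growth effect; inactive = the rest, general growth blockers included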;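 note: wells of about 50 µL received 100 nL stock; 0% = vehicle wells and 100% = reference inhibitor wells; whole bacteria with a GFP reporter of the hypoxia response; strong numbers were not always called active; many hits fall short of the cut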
Sa RN4220 lethal = S. aureus RN4220 growth inhibition | OD600, 16 h | inhibition, % (test concentration not listed) | 330,000 compounds, 0.33% hits;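 active = z-score of -3 or lower and OD600 up to 0.18 on both plates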;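 note: plate controls were untreated cells for no effect and reference antibiotic for full effect; stock transfer was 100 nL into about 80 µL; one replicate is shown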
Mtb hypoxia rep growth = further read-out of Mtb hypoxia rep, marked with its call; growth inhibition, %; measured here: M. tuberculosis growth (absorbance);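 0% = vehicle and 100% = reference antibiotic; read after six days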
* hit, by the source's call; ? = inconclusive; . = no result given.

A first look:
Compound	BJeLR lethal	PrP 5UTR inh	Mtb hypoxia rep growth	Sa RN4220 lethal	Mtb hypoxia rep	ugtP null kill	Autofluor counter
C/C(CC(=O)Nc1cccc2c1CCCC2)=N\NC(=O)c1ccccc1N	7	-27	.	.	.	.	24027*
CCOC(=O)CN1C(=O)NC(C)(c2ccc(OC(F)F)cc2)C1=O (stereo not drawn)	2	-16	7	3.9	-8	1	4686
CCOc1cc(C2NCc3ccccc3-n3cccc32)ccc1O (stereo not drawn)	5	-8	.	5.7	.	22	2674

Results, previewed entries included:
Compound	BJeLR lethal	PrP 5UTR inh	Mtb hypoxia rep growth	Sa RN4220 lethal	Mtb hypoxia rep	ugtP null kill	Autofluor counter
C/C(CC(=O)Nc1cccc2c1CCCC2)=N\NC(=O)c1ccccc1N	7	-27	.	.	.	.	24027*
CCOC(=O)CN1C(=O)NC(C)(c2ccc(OC(F)F)cc2)C1=O (stereo not drawn)	2	-16	7	3.9	-8	1	4686
CCOc1cc(C2NCc3ccccc3-n3cccc32)ccc1O (stereo not drawn)	5	-8	.	5.7	.	22	2674
Cc1cc(O)ccc1N/C=C/c1onc(C)c1[N+](=O)[O-]	-6	-63	2	7.1	8	4	2311
Cn1cccc1C(=O)Nc1ccc(N2CCOCC2)cc1	.	-16	6	5.0	2	7	4771
CC(C)(Oc1ccc(Cl)cc1)C(=O)OCC(=O)NCCc1ccccc1	-2	-18	5	0.0	11	1	5909
CN(C)c1cccc(C(=O)Nc2ccc3nc4n(c(=O)c3c2)CCCCC4)c1	2	-25	12	-0.8	5	13	4315
COc1ccc(C2=CC(=O)OC(C)(c3ccccc3)O2)cc1 (stereo not drawn)	-3	3	1	8.1	14	-3	2245
CN(C)CCCNc1cc(C(C)(C)C)nc2c(-c3ccc(Cl)cc3)cnn12	11	-5	.	101*	.	100*	2954
O=C(Cc1ccccc1)Nc1ccc(C(=O)O)cc1	-11	-14	5	3.1	6	9	23610*
CCOC(=O)N1CCN(C(=O)c2ccc(N(Cc3ccc(C)cc3)S(C)(=O)=O)cc2)CC1	8	-5	8	-0.6	-6	-5	23851*
CCOC(=O)c1c(NC(=O)CSc2nnc(N)s2)sc(C)c1-c1ccc(C)cc1	-1	4	1	0.5	6	26	2542
CC(C)(C)NC(=O)CN1CCC(NC(=O)C23CC4CC(CC(C4)C2)C3)CC1	-6	3	1	4.1	-9	4	3383
CCCOc1cccc(-c2nnc(N)s2)c1	2	-23	8	7.1	1	-5	4477
CCOC(=O)Nc1ccc(OC)c([N+](=O)[O-])c1	10	-16	10	12	4	3	3313
O=c1cc(N2CCOCC2)[nH]c(=O)n1Cc1ccc(F)cc1	-6	-18	4	-1.9	6	-1	5481
Cc1cccc(CN2CCN(Cc3ccc(-n4cccn4)cc3)CC2CCO)n1 (stereo not drawn)	-9	-1	1	-1.5	-8	-5	3563
CSc1c(CC(=O)Nc2ccccc2C(F)(F)F)n(Cc2ccccc2)c2ccccc12	-2	-13	2	-5.5	-9	-4	2473
CCC(=O)c1c[nH]c(C(=O)N2CCN(c3ccccc3)CC2)c1	-4	-15	10	2.1	2	4	3344
COc1ccc(S(=O)(=O)N2CCN(C(=S)NCC3CCCO3)CC2)cc1OC (stereo not drawn)	-3	-14	4	2.4	6	7	5002
CCCCCCCNC(=O)c1ccc(N2CCC3(CC2)OCCO3)c([N+](=O)[O-])c1	0	-26	8	-4.0	-7	-9	2428
c1ccc2sc(-c3ccncc3)nc2c1	-4	-55	-7	5.1	-7	-10	3892
OCCNC(=S)Nc1ccc(Cl)c(Cl)c1	13	-12	-11	7.1	-19	-3	10128
O=C(/C=C/c1ccc2ccccc2n1)c1cc(Cl)ccc1O	-1	-33	7	4.6	6	10	4811
COCCn1c(C)cc(C(=O)CSc2nc3nc(C)cc(C)n3n2)c1C	-17	-21	7	-1.6	-5	-4	1957
CN(C)c1ccc(-c2nc3ccccn3c2/N=C/c2ccc(Br)cc2)cc1	-8	-101	.	.	.	.	1728
CC1CCC(NC(=O)Cn2ncc3ccccc32)CC1 (stereo not drawn)	0	-34	.	-4.1	.	1	4314
Cc1cc(Cl)ccc1OC(C)C(=O)N1CCCN(C(=O)C(C)Oc2ccc(Cl)cc2C)CC1 (stereo not drawn)	6	1	.	-8.4	.	-29	4892
c1ccc2c(N3CCCC3)nc(-c3ccncc3)nc2c1	4	0	2	-1.8	6	-4	.
COC(=O)/C=C/c1ccsc1NC(C)=O	0	-13	8	2.1	12	3	2130
COc1ccc(/C=C2\SC(=O)N(CC(=O)NN3CCN(C)CC3)C2=O)cc1OC	-7	-16	7	4.7	-1	11	4553
CCC(C)NC(=O)CO/N=C/c1ccc(C(=O)OC)cc1 (stereo not drawn)	-1	-2	.	.	.	.	3135
CC(OC(=O)c1cccc(-n2cnnn2)c1)C(=O)Nc1cccc(Cl)c1 (stereo not drawn)	-6	-47	11	2.3	3	-6	5813
Cc1ccc(NC(=O)CCn2cnc3ccccc3c2=O)c(C)c1	3	-7	14	1.9	10	3	3086
COc1ccc(/C=C2\NC(=S)N(CC3CCCO3)C2=O)c(OC)c1 (stereo not drawn)	-6	-23	-3	4.5	4	1	6531
COCc1c(C(=O)OCC(=O)Nc2ccc(OC(F)F)cc2)oc2ccccc12	.	-11	12	-1.3	10	3	.
O=C(NC1CC1)[C@@H]1CSC2c3ccccc3C(=O)N21 (stereo partly drawn)	3	-3	.	.	.	.	4629
COc1ccccc1C(=O)Nc1cccc(S(=O)(=O)N2CCCC2)c1	-5	-2	-2	3.1	2	-6	4395
O=Cc1c(C(=O)O)n(CC(=O)O)c2ccccc12	10	-15	4	3.0	-9	2	2485
CCCCCOC(=O)Nc1nnc(CCC)s1	1	-23	5	5.9	20	2	?
COc1ccc(/C=C/c2c([N+](=O)[O-])c(=O)n(C)c(=O)n2C)cc1O	-5	-20	6	3.0	19	-4	10403
O=C(CSc1nccn1-c1ccccc1)Nc1ccc2c(c1)OCO2	-5	-29	.	3.2	.	17	3676
Cc1ccccc1C(=O)Nc1nc(SCc2ccc(Cl)cc2)n[nH]1	-1	-42	8	7.1	12	-6	6523
COCC(=O)Nc1nnc(SCC(=O)N2C(C)CCCC2C)s1 (stereo not drawn)	-13	-21	-1	0.1	2	7	5259
COc1ccccc1N(CC(=O)NCCc1ccccc1)C(=O)CCC(=O)Nc1ccccn1	14	-37	1	3.7	2	9	4084
CC(C)C(=O)NC(Oc1ccccc1Cl)C(Cl)(Cl)Cl (stereo not drawn)	4	0	-1	-4.7	-6	-14	2189
CCN(C(=O)CSc1cc(-c2ccccc2)c2ccc(OC)cc2n1)C1CCS(=O)(=O)C1 (stereo not drawn)	-11	-19	7	-6.3	-4	4	2296
O=S(=O)(c1ccc2c(c1)CCC2)N1CCNCC1	.	-12	-7	5.3	6	16	.
Cc1cccc2nc(-c3cccnc3)c(NCCC(C)C)n12	0	0	0	3.4	3	2	3523
Cc1ccc2c(C(=O)CNc3nncs3)c(C)[nH]c2c1	1	-13	10	1.0	-11	-17	5931
CCOC(=O)C(C)Sc1nnc(Cn2c(=O)sc3ccccc32)n1-c1ccccc1 (stereo not drawn)	-9	-10	.	1.9	.	4	4279
CC1=NN(c2ccccc2)C(=O)C1(C)C	7	-10	-5	2.5	-3	-3	2412
CCOc1ccc(NC(C)=O)cc1[N+](=O)[O-]	1	-32	0	-1.2	13	4	4568
CC(OC(=O)Cc1ccccc1F)C(=O)Nc1ccc(Cl)cn1 (stereo not drawn)	.	-11	10	2.1	1	4	?
COc1cccc2c1N1C(=O)c3c(C(=O)O)cccc3C1CC2(C)C (stereo not drawn)	-5	-18	.	.	.	.	2743
CC(C)NS(=O)(=O)c1ccc(N2C(=O)c3ccccc3C2=O)cc1	-4	-27	14	-1.5	-5	-6	19293*
O=C(Nc1cccnc1Oc1ncnc2cc(Cl)ccc12)c1ccc(F)cc1	3	.	2	3.9	-4	4	.
COc1ccc(Cc2cc(-c3ccc(F)cc3)n[nH]c2=O)cc1	-11	-6	5	-3.5	3	-4	6302
O=c1nc2n(c3ccc(Br)cc13)CCS2	3	-12	2	3.3	2	-1	10804
CC1(C)CN=C(Nc2ccc(F)c(F)c2)S1	2	-16	-1	-9.4	6	0	4260

The results go on.
Compound	BJeLR lethal	PrP 5UTR inh	Mtb hypoxia rep growth	Sa RN4220 lethal	Mtb hypoxia rep	ugtP null kill	Autofluor counter
CCCCC(=O)OCC(=O)c1cc(C)n(-c2c(C)n(C)n(-c3ccccc3)c2=O)c1C	6	-1	5	0.0	11	8	4265
CNc1nc(N)c(C(=O)C23CC4CC(CC(C4)C2)C3)s1	-3	-5	2	7.2	8	1	4152
CCC(=NC(C)c1ccccc1)c1c(O)n(C)c(=O)n(C)c1=O (stereo not drawn)	10	-11	19	7.8	11	6	15277
CCOC(=O)c1cnc(SC)nc1Oc1cccc(NS(=O)(=O)c2ccc(F)cc2)c1	-4	-11	4	7.7	5	2	4244
Cc1cccc(NC(=O)C(=O)NCC2CCCN2S(=O)(=O)c2ccccc2)c1 (stereo not drawn)	-11	-7	4	3.4	-1	1	.
COc1cc(/C=C(\C#N)C(=O)NCCc2ccccc2)cc(OC)c1O	-4	-11	0	6.6	-3	7	4485
COCCn1cnnc1SCC(=O)Nc1ccccc1C(=O)Nc1ccc2c(c1)OCO2	1	-28	16	3.0	17	-2	3790
CC1(C)C2CCC1(CS(=O)(=O)Nc1ccccc1)C(=O)C2 (stereo not drawn)	1	-15	0	9.0	14	7	4308
CC(C)=CCC(C)(C)C=NNC(N)=O	.	.	6	2.4	7	0	.
CS(=O)(=O)N1CCCC(C(=O)NCc2ccccn2)C1 (stereo not drawn)	4	5	6	1.7	2	-6	11201

4 records picked at random from those above, as already listed:
Compound	BJeLR lethal	PrP 5UTR inh	Mtb hypoxia rep growth	Sa RN4220 lethal	Mtb hypoxia rep	ugtP null kill	Autofluor counter
CNc1nc(N)c(C(=O)C23CC4CC(CC(C4)C2)C3)s1	-3	-5	2	7.2	8	1	4152
CC1=NN(c2ccccc2)C(=O)C1(C)C	7	-10	-5	2.5	-3	-3	2412
CN(C)c1ccc(-c2nc3ccccn3c2/N=C/c2ccc(Br)cc2)cc1	-8	-101	.	.	.	.	1728
CC(C)(Oc1ccc(Cl)cc1)C(=O)OCC(=O)NCCc1ccccc1	-2	-18	5	0.0	11	1	5909
